# Screens deposited in PubChem BioAssay by several laboratories.
# Env fusion inh = HIV envelope-mediated fusion inhibition; HeLa-JRFL Env/CEM21 cell fusion, luciferase; 360,000 compounds, 1.1% hits; inhibition, % at 12.3 µM;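 active means mean replicate inhibition score of at least 50 and every replicate individually at or above 50; inconclusive means only one of the two criteria met; inactive means mean below 50 and not all replicates reaching 50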;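 further: 0% = plate neutral controls and 100% = maraviroc near 300 nM; one replicate is shown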
# MT1-MMP act inh = inhibitors of human MT1-MMP activation | AID 651647 | P50281 | HT1080 RFP-PRO-GFP cells, GFP/RFP ratio fluorescence, overnight; percent of plate control window, DMSO zero | 360,000 compounds, 0.061% hits | GFP/RFP ratio change, % at 20 µM;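 active means GFP/RFP ratio change of at least 30% with cell ATP level not reduced by more than half and red fluorescence within 50% of control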; further: strong numbers were not always called active
#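 Material – HT1080 RFP-PRO-GFP cells · Control set – DMSO wells and RFP-L50D-GFP cells · Incubation – overnight cell settling, then overnight compound exposure, 37 °C, 5% CO2 · Compound dosing – single-point 20 µM compound, 1% DMSO · Read-out – GFP/RFP fluorescence ratio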
# Yeast UUG start = yeast start codon fidelity modulation; S. cerevisiae UUG-firefly luciferase reporter, luminescence/redox ratio; activity score, % at 18.7 µM; 350,000 compounds, 0.13% hits; AID 602363;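 active means replicate mean at a twofold rise or more, about +100% in these data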;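 further: firefly luciferase made from a UUG start codon reports start codon fidelity; reporter light over untreated wells divided by growth signal over untreated wells; some hits fall short of that in this replicate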
# PABP FP inh = PABP-poly(A) binding inhibition. 290,000 compounds, 1% hits. PABP-poly(A) RNA binding, fluorescence polarization. P11940. inhibition, % at 35 µM;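 active means 50% or more with normal probe brightness, or confirmed in later tests; inconclusive means above 50% with abnormal brightness, or retests that disagree; inactive means below 50% or failed in later tests; about a fifth of its hits are not listed in these tables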;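 further: calls also rest on retests at 20 µM and on dose response follow-up; controls were probe without protein and protein plus probe with vehicle; some compounds called inactive have numbers as strong as hits; many hits fall short of the cut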
# Target sequence (P11940 whole entry, looked up): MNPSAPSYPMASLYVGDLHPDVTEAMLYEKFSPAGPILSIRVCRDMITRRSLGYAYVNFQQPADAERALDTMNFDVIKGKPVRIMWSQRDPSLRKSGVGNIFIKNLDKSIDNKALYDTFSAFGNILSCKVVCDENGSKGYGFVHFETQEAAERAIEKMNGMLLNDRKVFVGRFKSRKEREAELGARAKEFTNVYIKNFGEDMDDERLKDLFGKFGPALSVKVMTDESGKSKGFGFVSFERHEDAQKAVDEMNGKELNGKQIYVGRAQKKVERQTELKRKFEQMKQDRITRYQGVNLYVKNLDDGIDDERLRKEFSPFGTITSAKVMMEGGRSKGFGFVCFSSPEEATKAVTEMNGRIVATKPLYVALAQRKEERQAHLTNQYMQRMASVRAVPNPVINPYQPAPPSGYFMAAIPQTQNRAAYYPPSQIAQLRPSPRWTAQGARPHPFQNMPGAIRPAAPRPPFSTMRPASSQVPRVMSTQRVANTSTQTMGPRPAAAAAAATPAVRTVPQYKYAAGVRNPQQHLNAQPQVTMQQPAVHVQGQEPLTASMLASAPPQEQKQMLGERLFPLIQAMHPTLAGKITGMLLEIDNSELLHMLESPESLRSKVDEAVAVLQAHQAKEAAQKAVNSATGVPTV
# CSC inhib = blocks cancer stem cells; cancer stem cell-like cells viability, luminescence; inhibition, % at 7.5 µM; 300,000 compounds, 1.1% hits; AID 2717;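 active means mean at 75% or more and at least half the replicates too; inconclusive means mean and replicates disagree; tested in HMLE shEcad cells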;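 further: 0% = median of negative and 100% = median of positive control wells; the first replicate is given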
# Rce1 inh = blocks yeast Ras-converting enzyme; Q03530; yeast membranes, quenched prenylated peptide cleavage fluorescence; calls only; 290,000 compounds, 0.27% hits;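 active means fall in fluorescence gain of 50% or more versus controls, with final raw signal at or below 3038400; inconclusive means same 50% fall but final raw signal above 3038400; inactive means fall in fluorescence gain under 50%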;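 further: plate controls were neutral control wells for no effect and wells lacking membranes for full effect; tested at 10 µM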
# eIF4H FP inh = inhibitors of RNA binding by human eIF4H | Q15056 | eIF4H fluorescence polarization binding assay | inhibition, % at 35 µM | 290,000 compounds, 0.94% hits | AID 2012;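 active means 50% or more with normal probe brightness, or confirmed in later tests; inconclusive means above 50% with abnormal brightness, or retests that disagree; inactive means below 50% or failed in later tests; about a fifth of its hits are not listed in these tables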;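 further: calls also rest on retests at 20 µM and on dose response follow-up; 0% = protein and probe with vehicle and 100% = probe without protein; strong numbers were not always called active; many hits fall short of the cut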
# MT1-MMP act inh RFP = recorded beside MT1-MMP act inh, whose call it bears; RFP signal change, %; measured here: RFP expression control read;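 0 = vehicle wells; hits needed this value within 50% of zero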
# * marks the source's active call; other numbers are inactive results; i = inactive; ? = inconclusive; . = no result given; [ ] = another dose, or the depositor's remark.
# Below each SMILES – Env fusion inh, MT1-MMP act inh, MT1-MMP act inh RFP, Yeast UUG start, PABP FP inh, CSC inhib, Rce1 inh, eIF4H FP inh
- CCCc1nc2sc3c(c2c(=O)[nH]1)CCCC3
 : -2, 0, 1, ., -4, 22, i, 2
- Cc1cc(C(=O)NC(C)c2ccccc2)c2cc(F)ccc2n1 (centres undefined)
 : 7, -1, 1, ., 5, 8, i, 10
- Cc1ccccc1NC(=O)C(=O)c1cn(C)c2ccccc12
 : -33, 11, 11, -6, 2, 0, i, 0
- Cc1ccc(NC(=O)CCC(=O)NNC(=O)c2cccs2)cc1C
 : ., 0, 1, -2, -1, ., i, -4
- COc1ccc(N2CCN(C(=O)c3ccc(OCC4CCCO4)cc3)CC2)cc1 (centres undefined)
 : ., -4, 3, 5, 5, -4, i, -5
- COc1ccc(Cl)cc1S(=O)(=O)N1CCN(c2ccc(F)cc2)CC1
 : -33, 5, 1, 8, -6, -2, i, -1
- O=C1OC(C(=O)Nc2nccs2)Cc2ccccc21 (centres undefined)
 : ., 0, 3, -11, -5, -5, i, -2
- O=C(c1cccnc1)N1CCN(S(=O)(=O)c2ccc(S(=O)(=O)N3CCCC3)cc2)CC1
 : ., 1, 1, -12, -15, ., i, -2
- CCOC(=O)C1C(c2ccc(O)c(OC)c2)NC(=S)NC1(O)C(F)(F)F (centres undefined)
 : -6, 0, -1, -66, -6, -8, i, 1
- CC(C)c1ccc(-c2nnn(CCC#N)n2)cc1
 : -21, 4, 7, ., -1, 4, i, -7
- COc1ccc(NC(=O)CSc2nnc3ccc(-c4ccccn4)nn23)cc1
 : 1, 1, -3, -13, ., 4, i, .
- O=C1CC(=O)N(Cc2ccco2)C(=O)N1
 : 12, -88, 6, -6, -8, -8, i, ?
- CCN(C(=O)CSc1nc(N)cc(N)n1)C1CCS(=O)(=O)C1 (centres undefined)
 : -16, 4, 9, 4, -13, ., i, -2
- O=C(CSc1ccccc1)N[C@@H](Cc1ccccc1)C(=O)O
 : -2, 4, 5, -11, 7, 9, i, -12
- C/C(=N\NS(=O)(=O)c1c(C)cc(C)cc1C)c1ccncc1
 : 13, 4, -4, -5, -4, -1, i, -6
- CCOC(=O)C1(CCOC)CCN(C(=O)Cc2ccsc2)CC1
 : 5, 2, 5, 4, 12, -12, i, -9
- Cc1ccc(S(=O)(=O)N(CC(=O)c2ccccc2)C(=O)N2CCN(C)CC2)cc1
 : -62, 1, 2, -1, ., ., i, .
- CC1CCN(S(=O)(=O)c2ccc3[nH]c(=O)c(=O)[nH]c3c2)CC1
 : -1, 3, 2, -1, 7, -8, i, -1
- CC(C)(C)c1ccc(-c2nc(C#N)c(NCCCn3ccnc3)o2)cc1
 : 7, 3, -1, 10, 1, 88*, i, 13
- Cc1nc2ccc(NC(=O)Cc3ccsc3)cc2s1
 : ., 4, -1, ., -8, -6, i, 7
- Cc1ccc(C)c(-n2cc(CNCCc3cnccn3)c(-c3ccccc3)n2)c1
 : 32, -3, -3, ., -22, -14, i, 7
- O=C(Cc1cccc(NC(=O)C2CCCN(C(=O)C3CCCCC3)C2)c1)Nc1cccc(C(=O)N2CCCC2)c1 (centres undefined)
 : 9, 3, 2, -14, ., -24, ., .
- CCOc1cccc(CNCc2ccc(C(=O)O)cc2)c1
 : 2, 1, 5, ., -1, -7, i, 5
- COc1cccc(-n2nnnc2S(C)(=O)=O)c1
 : ., -3, -6, -49, 4, 38, i, 8
- CC1=NN(C(N)=S)C(=O)C1N=Nc1ccc(Br)cc1 (centres undefined)
 : -135, 4, -5, -15, 6, ., i, 8
- CC(NC(=O)Cc1ccc(-c2ccccc2)cc1)c1ccccc1 (centres undefined)
 : ., -7, -2, ., -5, 28, i, -1
- Cn1cc(/C=C2\SC(=S)N(NC(=O)c3ccccc3Cl)C2=O)c2ccccc21
 : -17, -170, 5, ., -8, 11, ., ?
- COc1ccccc1/C=C/C=N/n1c(-c2ccco2)n[nH]c1=S
 : -10, 4, -4, ., -3, -11, i, 5
- COc1cc(/C=N/NC(N)=O)ccc1OCC(=O)N1C(C)CCCC1C (centres undefined)
 : -1, -1, -1, ., 0, -5, i, -1
- O=C(C[C@@H]1CC[C@H](NS(=O)(=O)c2ccccc2F)[C@@H](CO)O1)NCCCN1CCOCC1
 : 10[16.7 µM], -2, 3, 7, ., ., ., .
- CCCN(CC(=O)Nc1ccccc1OC)C(=O)CCNC(=O)c1ccccc1OC
 : -2, -3, -1, -10, ., -5, i, .
- CC1=C(C(=O)Nc2ccc(C)cc2C)C(c2ccc(Cl)cc2)n2nc(C(=O)OC(C)C)nc2N1 (centres undefined)
 : -7, 1, 3, ., 0, -11, i, 13
- Cc1ccc(SCC(=O)N2N=CCC2c2ccccc2)cc1 (centres undefined)
 : 1, 0, -1, ., -6, -7, i, 0
- CNC(=S)N1CCN(c2nc(-c3cccc(OC)c3)cs2)CC1
 : 7, 6, 1, -14, -5, -4, i, -4
- COc1ccccc1OCC(O)Cn1c(=N)n(Cc2ccccc2)c2ccccc21 (centres undefined)
 : 3, -9, -4, 8, 4, 8, i, 15
- COc1ccc(C=NNC(=S)NN=Cc2ccc(OC)c(OC)c2)cc1OC
 : 42, 8, -11, -38, ., ., ., .
- Cc1[nH]nc2c1C(c1cccnc1)N(c1ccc(Br)cc1)C2=O (centres undefined)
 : 37, -4, 1, -17, 6, ., i, -4
- Nc1nc(SCc2ccccc2)[nH]c(=O)c1-c1ccccc1
 : ., 5, 1, -11, -6, 9, i, -10
- CCSc1nnc(N2C(=O)c3ccc(C(=O)c4ccc(C(=O)O)cc4)cc3C2=O)s1
 : -4, -2, 3, -8, 16, -43, i, -12
- O=C(Nc1c2c(nn1-c1ccccc1)CSC2)c1ccc(N2C(=O)CCC2=O)cc1
 : 6, -2, 0, ., 11, -2, ., -2

# Continued; it opens with the five that closed the last part.
# Below each SMILES – Env fusion inh, MT1-MMP act inh, MT1-MMP act inh RFP, Yeast UUG start, PABP FP inh, CSC inhib, Rce1 inh, eIF4H FP inh
- COc1ccc(C=NNC(=S)NN=Cc2ccc(OC)c(OC)c2)cc1OC
 : 42, 8, -11, -38, ., ., ., .
- Cc1[nH]nc2c1C(c1cccnc1)N(c1ccc(Br)cc1)C2=O (centres undefined)
 : 37, -4, 1, -17, 6, ., i, -4
- Nc1nc(SCc2ccccc2)[nH]c(=O)c1-c1ccccc1
 : ., 5, 1, -11, -6, 9, i, -10
- CCSc1nnc(N2C(=O)c3ccc(C(=O)c4ccc(C(=O)O)cc4)cc3C2=O)s1
 : -4, -2, 3, -8, 16, -43, i, -12
- O=C(Nc1c2c(nn1-c1ccccc1)CSC2)c1ccc(N2C(=O)CCC2=O)cc1
 : 6, -2, 0, ., 11, -2, ., -2
- CCOC(=O)c1nc(C)nc(Sc2n[nH]c(-c3cc(C(F)(F)F)cc(C(F)(F)F)c3)n2)c1C
 : -6, 1, 2, 5, 0, 44, i, -6
- O=c1cc(N2CCN(c3ccccc3F)CC2)[nH]c(=O)n1-c1ccc(Br)cc1
 : 14, 2, -3, -20, -5, 3, i, -1
- CCc1sc(C(=O)N2CCCN(C)CC2)cc1Br
 : 18, -1, -1, -12, 8, -1, i, -3
- CC(=O)N(C)c1ccc(N=C2C(=O)Nc3ccccc32)cc1
 : ., -3, 5, -7, -1, -11, i, 11
- C=CCNC(=O)c1ccccc1NC(=O)C1CCN(S(=O)(=O)c2ccc(SC)cc2)CC1
 : 1, -3, -5, -5, 37, 9, ., 1
- O=C(c1ccco1)N1CCCC(c2nc3c(nnn3Cc3c(Cl)cccc3Cl)c(=O)[nH]2)C1 (centres undefined)
 : 11, -8, -2, 16, 0, -16, ., -11
- O=C(NN1C(=O)C2C3c4ccccc4C(c4ccccc43)C2C1=O)c1ccccc1 (centres undefined)
 : ., 0, 0, ., -4, -10, i, -4
- CC(=O)Nc1ccc(NC(=O)COC(=O)C2c3ccccc3Oc3ccccc32)cc1
 : 2, 3, 3, ., 18, ., i, -3
- Cc1ccc(CNC(=O)C2CCCN(C(=O)Nc3ccc(F)cc3)C2)cc1 (centres undefined)
 : -6, 0, 1, -18, 2, -8, i, 2
- COc1ccc(N(C(=O)C(C)C)S(=O)(=O)c2ccc(Cl)cc2)cc1
 : -40, 6, -3, 0, -4, ., i, 2
- CCOC(=O)c1ccc(N2C(=O)[C@@H](c3ccccc3)[C@H]2c2ccccc2)cc1
 : -21, -1, -10, -23, ., 38, ., .
- COc1cc(SC)ccc1C(=O)OCC(=O)NCCNC(=O)COC(=O)c1ccc(SC)cc1OC
 : -12, 5, 6, -13, -1, -17, i, 1
- O=C(CN(c1ccc2c(c1)OCCO2)S(=O)(=O)c1ccccc1)Nc1ccc2c(c1)OCO2
 : ., -3, -4, -6, -4, 43, i, 21
- Cc1c(C(c2cccc(Br)c2)c2c(C)n(C)n(-c3ccccc3)c2=O)c(=O)n(-c2ccccc2)n1C
 : -2, -4, 0, -3, -7, -18, i, 4
- CC(C)C[C@H](NC(=O)c1nc[nH]c1C(=O)N[C@@H](CCCCNC(=O)OC(C)(C)C)C(=O)OC(C)(C)C)C(=O)OCc1ccccc1
 : -43, -21, -17, -7, 4, 28, i, -2
- O=C(NNC(=O)c1ccc([N+](=O)[O-])cc1Cl)c1ccncc1
 : 9, -3, 8, -8, -17, -4, i, -11
- CCn1c(SCC(=O)Nc2ccc3c(c2)OCO3)nc2c1c(=O)n(C)c(=O)n2C
 : ., 0, 2, -5, 3, 0, i, 0
- COc1ccc(CNC[C@H]2O[C@@H](n3ccc(=O)[nH]c3=O)[C@H](O)[C@@H]2O)cc1OC
 : -32, 5, 8, -13, ., ., ., .
- Cc1ccc(C(=O)N2CC=C(c3ccccc3)CC2)o1
 : -3, -1, 2, -7, ., -7, i, .
- CC(C)C1Cc2ccccc2-c2[nH]c(=S)[nH]c(=O)c21 (centres undefined)
 : -12, 3, 0, -20, ., -8, i, .

# Other compounds follow.
Structure,Env fusion inh,MT1-MMP act inh,MT1-MMP act inh RFP,Yeast UUG start,PABP FP inh,CSC inhib,Rce1 inh,eIF4H FP inh
O=C1CC(C(=O)Nc2cc(Cl)ccc2Cl)n2ncnc2N1 (centres undefined),-16,3,-6,.,-15,-1,i,0
CNC(=S)N(CCc1c(C)[nH]c2ccc(C)cc12)Cc1cccs1,2,2,1,.,14,-2,i,1
COC(=O)c1cccc([N+](=O)[O-])c1CN1CCCC(C(N)=O)C1 (centres undefined),3,-3,1,.,-14,5,i,1
CC1CC(C)CN(c2nc3c(c(=O)n(C)c(=O)n3C)n2C)C1 (centres undefined),.,4,2,10,-3,.,i,4
CCCCC(C(=O)NC(C)(C)C)N(Cc1ccccc1)C(=O)c1snc(C(N)=O)c1N (centres undefined),22,-1,-4,0,4,.,i,6
O=S(=O)(c1ccccc1)N1CCN(Cc2cccc(Cl)c2)CC1,-86,-7,-1,-19,18,-8,.,-3
COc1ccc(NS(=O)(=O)c2ccc3oc(SCC(N)=O)nc3c2)cc1,4,3,-7,-10,-3,0,i,-1
COc1ccccc1-c1ccc(=O)n(CC(=O)NCc2cccs2)n1,-27,2,2,.,8,-11,i,-10
Cc1ccc(C(OCC(O)CN2CCCCC2)c2ccccc2)cc1 (centres undefined),13,4,3,1,-7,-1,i,-7
